# Bioassay records: PubChem, several laboratories
# Vif TR-FRET – inhibitors of Vif binding to APOBEC3G peptide, primary screen, biochemical, TR-FRET, GST-Vif 1-94, biotin-A3G peptide, dose response retest (AID 1117319). TR-FRET GST-Vif / biotin-A3G peptide binding; higher % means a stronger effect; test concentration not given here; strong numbers were not always called active. inhibition, %; hits with a dose series show IC50 in µM. hit rate 0.57% among 260,000;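 active = above the screen mean plus three standard deviations and confirmed in dose response; inconclusive = results disagree or hit not tested in dose response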;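 note: Vif residues 1-94 fused to GST binding biotinylated APOBEC3G peptide 110-148; 0% = full assay without inhibitor and 100% = GST in place of GST-Vif; retest series ran down from 100 µM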
# RanGTP-Impb inh – disruptors of Ran-importin-beta complex formation – biochemical, FRET, CFP-Ran, YFP-importin-beta, homogeneous, primary screen; AID 2216; hit rate 1.1% among 300,000; inhibition, % (no concentration beside the values); cell-free CFP-Ran/YFP-importin-beta FRET ratio;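 active = most replicates above 15%; inconclusive = exactly half above 15%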;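 note: 0% = DMSO wells and 100% = Ran loaded with GDP instead of GTP; wells of about 40 µL received 100 nL stock; the first replicate is given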
# Calb FLC – C. albicans growth modulation with fluconazole; C. albicans CaCi-2 (fluconazole-resistant clinical isolate) + fluconazole, Alamar Blue growth, 48 h; hit rate 0.57% among 300,000; growth inhibition, % (concentration not given with the values);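 active = most replicates above 75%; inconclusive = exactly half above 75%; inactive = most below 75%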;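 note: all wells also contain fluconazole at 8 µg/ml as a sub-toxic cotreatment; 0% = median of DMSO wells and 100% = median of geldanamycin control wells; wells of about 8 µL received 7.5 nL stock; the first replicate is given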
# AF4-AF9 inh – MLL-AF4/AF9 protein interaction inhibition | hit rate 0.47% among 350,000 | AID 651704 | AlphaScreen, biotin-AF4 peptide binding to FLAG-AF9 | inhibition, % at 10 µM | P42568;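 active = every replicate reaching a set inhibition limit, whatever the replicate mean, cut at about 25% in these data; inconclusive = mean inhibition reaches that limit but some replicates miss it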;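 note: 0% = plate neutral control median and 100% = total signal loss; the record names both 10 and 1 µM as test concentration; the first replicate is given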
# Target sequence (P42568 whole entry, looked up): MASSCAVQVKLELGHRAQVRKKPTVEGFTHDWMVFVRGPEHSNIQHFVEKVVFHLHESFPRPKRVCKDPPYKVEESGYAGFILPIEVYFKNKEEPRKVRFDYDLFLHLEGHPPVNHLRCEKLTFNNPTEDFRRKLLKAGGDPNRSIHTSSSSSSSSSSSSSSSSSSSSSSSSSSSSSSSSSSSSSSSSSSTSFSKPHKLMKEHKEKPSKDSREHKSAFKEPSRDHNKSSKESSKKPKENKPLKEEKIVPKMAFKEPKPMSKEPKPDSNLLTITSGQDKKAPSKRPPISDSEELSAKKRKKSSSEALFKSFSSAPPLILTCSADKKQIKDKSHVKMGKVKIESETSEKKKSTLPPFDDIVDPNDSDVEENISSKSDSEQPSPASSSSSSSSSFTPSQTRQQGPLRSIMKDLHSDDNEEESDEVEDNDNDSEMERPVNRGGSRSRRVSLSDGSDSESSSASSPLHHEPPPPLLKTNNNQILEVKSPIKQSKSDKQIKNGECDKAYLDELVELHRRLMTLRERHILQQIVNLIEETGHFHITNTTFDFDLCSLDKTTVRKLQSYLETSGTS
# Beta apoptosis – blocks beta cell apoptosis; INS-1E cytokine-induced death, ATP luminescence, 48 h; percent of positive-control rescue, neutral wells zero; protection from apoptosis, % (concentration not given with the values); hit rate 0.8% among 300,000;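 active = all replicates at 75% or more, or half of them and the mean; inconclusive = half reach 75% but not the mean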;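 note: 0% = cytokine-treated negative control wells and 100% = positive control rescue; higher means more ATP so stronger rescue from cytokine killing; wells of about 40 µL received 100 nL stock; the first replicate is given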
# T cruzi inh – blocks replication of Trypanosoma cruzi | T. cruzi beta-gal in NIH3T3, luminescence, 90 h | inhibition, % (test concentration not listed) | hit rate 1.4% among 300,000 | AID 1885;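 active = mean inhibition across valid replicates above about 55%, limit read from the data; inconclusive = mean below that limit but half or more replicates reach it; inactive = mean below it, under half of replicates reach it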;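 note: signal also drops with host cell toxicity which is not excluded here; 0% = plate median of DMSO wells and 100% = zero luminescence signal; higher percent means less beta-gal luminescence so fewer parasites; stock transfer was 50 nL into about 50 µL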
# A1 inh – inhibitors of the anti-apoptotic protein A1, read as caspase activation. MEF A1-2A-BIM cells, Caspase-Glo 3/7 luminescence, 3 h; percent of clofoctol response, vehicle zero. hit rate 0.066% among 330,000. caspase activation, % (test concentration not listed);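 active = over half of replicate activation scores above 10%, or exactly half above 10 with the replicate mean above 10; inconclusive = replicate mean below 10 yet half the replicates above 10; inactive = over half of replicates below 10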;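 note: wells of about 30 µL received 50 nL stock; many hits fall short of the cut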
# rRNA inh HTS – selective bacterial rRNA inhibition in E. coli; AID 720706; hit rate 1.6% among 350,000; GFP signal change (wild-type ribosome), % (concentration not given with the values); E. coli WT GFP vs humanized-ribosome RFP mutants, fluorescence, 24 h; active compounds read low; DMSO median 0, no signal -100;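 active = significant combined selectivity score with lowered wild-type GFP, culture density cut under 30%, mutant RFP and density less affected; inactive = any of these conditions unmet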; note: one replicate is shown; some compounds called inactive have numbers as strong as hits
# rRNA inh HTS OD600 – recorded beside rRNA inh HTS, whose call it bears; OD600 change, %; measured here: OD600 growth;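 optical density of the mix in the first replicate; 0 = DMSO median and -100 = no signal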
# rRNA inh HTS RFP – further read-out of rRNA inh HTS, marked with its call; RFP signal change, %; measured here: RFP humanized mutant strains;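 first replicate; 0 = DMSO median and -100 = no signal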
# Starred values were filed as active, the others as inactive; ? = inconclusive; · = no result given. Not all compounds are listed; the hit share may differ from the screen's.
SMILES,Vif TR-FRET,RanGTP-Impb inh,Calb FLC,AF4-AF9 inh,Beta apoptosis,T cruzi inh,A1 inh,rRNA inh HTS,rRNA inh HTS OD600,rRNA inh HTS RFP
Cn1cccc1/C=C(\C#N)C(N)=S,-3.5%,-1.3,-3.2,·,-2.8,-4.1,0.6,8.4,3.6,3.4
CCOC(=O)C1=C(CSc2nc3c(cc2C#N)CN(C)CC3)OC(N)=C(C#N)C1c1ccncc1 (stereo unspecified),?,20.8*,-16.8,·,4.0,23.3,-0.9,·,·,·
COc1cc(C(=O)OCC(=O)c2cc(C)n(C)c2C)cc(OC)c1OC,21.1%,-1.3,6.6,·,-3.5,-11.4,0.4,·,·,·
Cc1cc(C)c(C)c(S(=O)(=O)N2CCN(c3ncnc4sc(C)c(C)c34)CC2)c1C,·,2.8,-0.1,·,-2.8,0.9,0.1,·,·,·
COc1ccc(C(=O)Nc2ccc(S(=O)(=O)NC(C)(C)C)cc2)cc1[N+](=O)[O-],-8.6%,1.6,-18.4,3.9,4.9,-2.7,-0.3,-4.3,1.9,6.5
Cc1cc(C)n(-c2n[nH]c(=O)c3ccccc23)n1,10.3%,-0.2,-3.0,-1.0,-1.8,-25.7,0.0,6.7,1.7,-0.5
CCOc1cccc(/C=C(\C#N)C(=O)NC2CC2)c1,·,-0.2,-6.3,-1.6,-4.4,-5.1,-0.5,4.8,-4.3,-0.7
O=C1C=C(c2cccc(CO)c2)C[C@@H](c2ccc(F)cc2)C1,·,·,·,7.1,-1.0,·,0.2,-19.8,-30.4,-6.1
CCCCNC(=O)CN1C(=O)NC(CCc2ccccc2)C1=O (stereo unspecified),9.9%,-3.0,-2.2,-2.0,-3.6,-3.7,-0.1,·,·,·
COc1cccc(N=Nc2c(=O)[nH]n3c(=O)cc(C)[nH]c23)c1,9.6%,-2.6,-2.5,·,-5.4,-8.2,-3.2,·,·,·
c1ccc(CSc2nnc([C@@H]3CCCN3)o2)cc1,-5.5%,0.6,-10.0,·,-3.7,-6.8,-0.4,·,·,·
Cc1ccc(NN=C2c3ccccc3-c3ccccc32)cc1,·,-4.3,-5.4,·,-0.7,-3.8,-0.6,·,·,·
O=C(O)/C=C/c1ccc(Oc2ncccn2)cc1,-5.8%,-2.0,8.5,-1.6,-3.6,-19.4,-0.3,6.2,-0.5,-2.3
COc1ccc(C(=O)NNC(=O)C(NC(=O)c2ccccc2NC(=O)c2ccco2)C(C)C)cc1 (stereo unspecified),·,-3.1,20.8,-2.0,-5.7,1.4,0.0,16.1,13.8,3.1
CCN1C(=O)C(O)(CC(=O)C(C)(C)C)c2cc(Br)ccc21 (stereo unspecified),·,2.0,-6.9,0.1,-1.8,16.9,0.9,5.6,6.2,-0.1
COc1ccc(-n2c(SCC(=O)O)nc3sc4c(c3c2=O)CCCC4)cc1,-1.8%,3.8,-0.2,-6.2,-12.7,-6.8,2.0,2.5,-1.6,-2.6
N#Cc1cc2c([nH]c1=O)CCCC2,30.9%,1.3,-5.1,-0.8,0.3,-5.0,1.2,10.0,8.8,6.5
Cc1ccc2nc(-c3ccc(SCC(=O)O)nc3)[nH]c2c1,18.7%,-2.3,5.2,·,7.2,-3.5,-10.0,·,·,·
COC(=O)C1=C(Nc2ccc(C)cc2)C=C(C)C(C(=O)OC)C1c1ccc(OC)cc1 (stereo unspecified),0.4%,-6.3,?,·,19.0,30.0,1.3,·,·,·
CC(C)CCNC(=O)C1C2C=CC3(CN(Cc4ccccc4Cl)C(=O)C13)O2 (stereo unspecified),-5.8%,-3.6,1.9,-3.1,-3.0,-1.1,0.6,5.3,1.2,0.3
O=C1Nc2ccc3sc4ccccc4c3c2C1=O,-8.9%,1.8,7.2,0.4,7.7,-0.8,-0.4,·,·,·
COC(=O)c1ccc(C(=O)NCCCCO)cc1,15.3%,-2.2,43.7,-0.9,-5.0,-15.9,0.0,5.9,9.6,0.7
CCc1ccc(NC(=O)/C(C#N)=C/c2cc3ccc(C)cc3nc2N2CCOCC2)cc1,·,-3.8,-1.5,-0.8,-3.2,-4.6,1.6,0.6,1.7,4.3
N#Cc1c(-c2ccc(F)cc2)noc1N,?,3.3,25.1,·,·,-20.2,0.1,·,·,·

# Pulled by structure from the entries so far, 2 records:
SMILES,Vif TR-FRET,RanGTP-Impb inh,Calb FLC,AF4-AF9 inh,Beta apoptosis,T cruzi inh,A1 inh,rRNA inh HTS,rRNA inh HTS OD600,rRNA inh HTS RFP
O=C1Nc2ccc3sc4ccccc4c3c2C1=O,-8.9%,1.8,7.2,0.4,7.7,-0.8,-0.4,·,·,·
COc1ccc(C(=O)NNC(=O)C(NC(=O)c2ccccc2NC(=O)c2ccco2)C(C)C)cc1 (stereo unspecified),·,-3.1,20.8,-2.0,-5.7,1.4,0.0,16.1,13.8,3.1

# Next part.
SMILES,Vif TR-FRET,RanGTP-Impb inh,Calb FLC,AF4-AF9 inh,Beta apoptosis,T cruzi inh,A1 inh,rRNA inh HTS,rRNA inh HTS OD600,rRNA inh HTS RFP
CCN1CCN(S(=O)(=O)c2ccc(Cl)c(C(=O)N(C)C(c3ccccc3)c3ccccc3)c2)CC1,4.2%,1.2,-3.9,1.0,7.8,-0.3,-1.9,-36.3,-69.0,5.7
Cc1ccc(NC(=O)COC(=O)C2CCC2)cc1S(=O)(=O)N1CCOCC1,-4.6%,·,·,-3.7,1.1,·,-1.1,9.4,6.1,1.2
Cc1ccc(/C=C2\SC(=S)N(CCCC(=O)Nc3ccccc3C(=O)O)C2=O)cc1,·,1.8,0.6,-1.2,3.6,0.5,0.0,-2.2,4.6,-0.3
CCOC(=O)N1CCN(c2nnc(-c3ccccc3)c3ccccc23)CC1,-5.8%,-2.5,13.3,-1.5,2.9,4.6,1.1,-9.1,-15.9,3.8
CN1CC(=O)Nc2ccc([N+](=O)[O-])cc2C1=O,4.2%,1.4,-6.1,-1.0,·,-5.9,2.9,-7.3,-1.2,-5.0
COc1cccc(NC(=O)CN(C)C(=O)CSc2ncnc3sc(C)c(C)c23)c1,4.2%,-4.1,-5.8,1.0,·,-11.0,0.0,3.7,-0.5,-0.9
S=C(Nc1ccc(Br)cc1)NC1CCCCC1,-7.0%,5.0,-0.7,-1.0,·,-11.0,0.6,-55.2,-75.1,-26.1
NCCCCCC(=O)Nc1ccncc1,8.7%,-1.1,6.5,-3.2,·,-12.4,-1.0,13.3,3.9,0.0
CCN(C(=O)COC(=O)c1[nH]c(C)c(C(C)=O)c1C)c1c(N)n(Cc2ccccc2)c(=O)[nH]c1=O,-11.2%,·,·,-0.8,-5.9,·,-0.2,13.5,16.9,2.7
Oc1cccc(Nc2nc(O)c(/C=C3\C=Nc4ccccc43)s2)c1,-9.9%,·,·,12.7,8.8,·,-0.9,-55.0,-77.1,-28.6
COc1ccccc1CN1CC(C(=O)N2CCCCCCC2)CCC1=O (stereo unspecified),?,1.4,-11.7,-5.6,·,-7.5,-1.0,1.9,0.8,1.7
CC(OC(=O)C1=Cc2ccccc2OC1)C(=O)NC1CCCC1 (stereo unspecified),2.5%,-0.1,-15.4,-48.2,0.7,12.8,1.0,8.4,17.6,-1.0
Cc1cccc(-n2c(SCc3ccc([N+](=O)[O-])cc3)nnc2-c2c[nH]c3ccccc23)c1,?,-1.2,5.1,5.0,3.7,65.5*,-2.3,8.6,1.6,0.0
CCOc1ccc(NC(=O)N2CCC(NC(=O)C(Cc3ccc(OC)c(OC)c3)NC(C)=O)CC2)cc1 (stereo unspecified),5.1%,4.7,-16.8,·,-3.8,-0.6,-0.1,·,·,·
Cc1cc(C(=O)N2CCN(c3ccc([N+](=O)[O-])cc3)CC2)no1,3.5%,-4.0,-4.7,·,-5.1,3.6,1.1,·,·,·
CN1C(=O)CSc2ccc(NC(=O)N3CCN(c4ccccn4)CC3)cc21,·,0.6,1.4,2.7,-0.7,-2.5,2.8,-10.5,-17.9,-4.2
COc1cccc(N2CCN(C(=O)CSc3ccc(F)cc3)CC2)c1,2.6%,·,-4.0,-3.8,-18.1,·,-0.2,-11.7,5.1,3.2
O=C(C1CCN(Cc2ccccc2)CC1)N1CCCC1,22.4%,-0.6,-3.7,·,-12.5,-9.2,-0.1,·,·,·
CCSc1ncc(Cl)c(C(=O)Nc2cc(C)ccc2C)n1,2.9%,2.2,0.4,-3.4,-2.7,4.1,0.0,12.7,8.9,-4.2
COC/C=C/C1=CC2=CC(=O)C(C)(OC(=O)c3cnc4ccccc4n3)C(=O)C2=CN1CCN1CCOCC1 (stereo unspecified),·,-0.3,12.6,-2.4,-2.8,-0.9,0.1,2.8,11.5,1.5
CCCCNC(=O)N1CCc2[nH]c3ccccc3c2C1,-2.4%,5.3,-2.0,-1.2,-3.0,-4.5,1.1,5.8,-0.7,4.4
COc1cccc(NC(=S)NN=C2CCCCCC2)c1,?,-3.1,9.1,6.2,·,25.1,·,2.9,4.4,0.3
Cc1ccsc1/C=N/NC(=O)CN1CCN(S(=O)(=O)c2ccc(Br)cc2)CC1,·,-0.6,4.6,·,-2.6,-0.1,0.7,·,·,·
O=C(CSc1nnc(-c2ccccc2O)o1)N1CCOCC1,·,1.8,1.6,-1.9,·,-9.0,·,·,·,·
Cc1ccc(N(C)S(=O)(=O)c2cccc(C(=O)NC3CC(C)(C)NC(C)(C)C3)c2)cc1,0.0%,0.9,-1.3,-0.7,1.5,-2.3,-0.5,-0.5,-6.2,0.1
COc1ccc(S(=O)(=O)N2CCC(C(=O)NCCC3=CCCCC3)CC2)cc1OC,3.0%,0.2,-3.4,5.4,0.8,-3.6,0.4,-10.8,-6.4,-6.8
N#Cc1ccc(Cn2c(-c3ccc(F)cc3)noc2=O)cc1,0.4%,?,4.1,-0.3,1.3,0.5,-0.5,17.6,7.8,0.6
O=c1[nH]c(-c2ccccn2)nc2ccccc12,17.6%,4.6,0.8,·,10.5,-13.5,-2.5,·,·,·
Cc1ccc(C)c(NC(=S)NCCSc2ccc(Cl)cc2)c1,·,-3.1,-22.1,·,-3.1,31.9,1.4,·,·,·
COc1ccc(S(=O)(=O)N2CCCC(C(=O)N3CCCCCC3)C2)cc1 (stereo unspecified),-8.9%,-2.9,-19.0,·,3.4,-3.8,0.4,·,·,·
Cc1cc(NCCOCCO)n2c(nc3ccccc32)c1C#N,·,21.3*,6.8,2.0,2.9,0.4,1.1,1.2,-0.9,-2.9
Cc1nn(-c2ccccc2)c(C)c1/C=C/C(=O)OCC(=O)NC1CCS(=O)(=O)C1 (stereo unspecified),0.8%,-2.3,-17.4,-0.1,-7.2,-8.0,0.4,-2.7,0.9,-0.1
